PINK1 modulator = A Quantitative High throughput Screen to Identify Chemical Modulators of PINK1 Expression; PINK1 immunofluorescence, high-content cytometry, 24 h; Potency, µM (top dose mostly 76.6 µM), inactives show top-dose activation (PINK1 increase), hits mostly activators; 410,000 tested, 0.2% active; AID 624263, 2012; active = well fitted activation curve with a large enough effect; inconclusive = small, poorly fitted or top-dose-only effect; inactive = flat fitted curve, though single readings scatter; cell line not stated here;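 further: potency means the concentration at half of the fitted maximal effect; % of control where 0% means no effect; nearly all actives have a fitted effect of over 65% in size; a mitochondrial uncoupler was the plate control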
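Fluorescence from anti-PINK1 antibody, together with nuclear and cell stains, was scanned on a laser-scanning cytometer. Before staining, stable-line cells were incubated 24 hours with compounds at 5 concentrations; primary antibody 12 h at 10 degrees C.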
D2 PAM = Beta-Arrestin HTS for Positive Allosteric Modulators of the Human D2 Dopamine Receptor: Potentiators; potentiation, % (test concentration not listed); D(2) dopamine receptor (Homo sapiens), P14416; 360,000 tested, 0.23% active; DiscoveRx D2 beta-arrestin cells, luminescence, 90 min; 100% = 57 uM dopamine signal; active = potentiation of 50% or more; inconclusive = 30% to 50%; inactive = 30% or less;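 further: compound concentration not given in the record; tested on top of an EC20 dose of dopamine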
Target sequence (P14416 whole entry, looked up): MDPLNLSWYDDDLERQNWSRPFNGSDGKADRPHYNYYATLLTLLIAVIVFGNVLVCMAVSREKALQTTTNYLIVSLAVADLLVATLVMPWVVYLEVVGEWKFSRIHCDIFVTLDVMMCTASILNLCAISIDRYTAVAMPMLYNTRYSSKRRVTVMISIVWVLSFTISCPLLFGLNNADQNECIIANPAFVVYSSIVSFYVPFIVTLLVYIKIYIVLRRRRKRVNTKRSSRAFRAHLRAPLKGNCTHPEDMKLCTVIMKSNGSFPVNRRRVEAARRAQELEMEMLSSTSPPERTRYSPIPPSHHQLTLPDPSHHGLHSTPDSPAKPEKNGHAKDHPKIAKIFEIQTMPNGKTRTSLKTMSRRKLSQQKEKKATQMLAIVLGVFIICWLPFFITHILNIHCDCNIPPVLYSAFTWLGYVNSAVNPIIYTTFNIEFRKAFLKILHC
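PathHunter beta-arrestin assay in DiscoveRx D2 cells. Compounds were added with an EC20 of dopamine (50 nM final) for 90 min at 37 deg C. Luminescence was read 1 h after detection reagent, with 57 uM dopamine as the EC100 control.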
Six1-Eya2 inh = qHTS Assay for Inhibitors of the Six1/Eya2 Interaction; AlphaScreen GST-Six1/His-Eya2 binding, biochemical; active compounds read low; control for the full effect not named in the record; 360,000 tested, 0.56% active; activity change, % (no concentration beside the values); Homeobox protein SIX1 (Homo sapiens) + Protein phosphatase EYA2 (Homo sapiens), …; in the data active = activity change below about -65%; inconclusive = about -30% to -65%; inactive = above about -30%; further: on the % scale 0 is the no-effect control and ±100 the full control effect
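Homogeneous AlphaScreen proximity assay pairing GST-Six1 with His-tagged Eya2 (added as 5X mix: 250 nM and 500 nM) in 50 mM Tris pH 8.0, 300 mM NaCl, 1 mM TCEP. Glutathione donor and nickel acceptor beads; 1 h, 37 °C, dark.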
D2 agonist = Beta-Arrestin HTS for Positive Allosteric Modulators of the Human D2 Dopamine Receptor: Agonists; D(2) dopamine receptor (Homo sapiens), P14416; DiscoveRx PathHunter D2 beta-arrestin, luminescence, 90 min; 100% = 57 uM dopamine signal; activation, % (test concentration not listed); 360,000 tested, 0.084% active; in the data active = activation above about 40%; inconclusive = about 15% to 40%; inactive = below about 15%; further: compound concentration not given in the record; the text of the record calls up to 30% inactive
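Agonist mode: compounds alone added to overnight-plated D2 PathHunter cells for 90 min at 37 C, with 57 uM final dopamine (EC100) defining full response. Beta-arrestin recruitment detected by chemiluminescent reagent, read after 1 h at ambient temperature.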
CtBP-E1A blk = qHTS Assay for Inhibitors of the CtBP/E1A Interaction | AlphaScreen GST-E1A/His-CtBP binding, 1536-well; active compounds read low; control for the full effect not named in the record | AID 651724, 2012 | activity change, % (concentration not given with the values) | 340,000 tested, 0.49% active; in the data active means activity change below about -65%; inconclusive means about -30% to -65%; inactive means above about -30%; further: on the % scale 0 is the no-effect control and ±100 the full control effect
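AlphaScreen with 125 nM GST-E1A and 125 nM His-CtBP (5X stocks) in Tris pH 8.0, 300 mM NaCl, BSA, Tween 20, TCEP. Compounds preincubated 2 h at 37 deg C, then glutathione donor/nickel acceptor beads added for 1 h at 37 deg C in dark.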
TRPML1 ag = qHTS for Agonists of the Human Mucolipin Transient Receptor Potential 1 (TRPML1); AID 624414, 2012; activation, % (test concentration not listed); Mucolipin-1 (Homo sapiens), Q9GZU1; TRPML1-expressing cells, Ca2+ dye fluorescence, FDSS; host cell line not named in the record; reference of the full effect not given here; 410,000 tested, 0.12% active; in the data active = activation above about 50%; inconclusive = about 30% to 50%; inactive = below about 30%; further: 0% is about no effect; the text of the record puts the active cut at 80%
Target sequence (Q9GZU1 whole entry, looked up): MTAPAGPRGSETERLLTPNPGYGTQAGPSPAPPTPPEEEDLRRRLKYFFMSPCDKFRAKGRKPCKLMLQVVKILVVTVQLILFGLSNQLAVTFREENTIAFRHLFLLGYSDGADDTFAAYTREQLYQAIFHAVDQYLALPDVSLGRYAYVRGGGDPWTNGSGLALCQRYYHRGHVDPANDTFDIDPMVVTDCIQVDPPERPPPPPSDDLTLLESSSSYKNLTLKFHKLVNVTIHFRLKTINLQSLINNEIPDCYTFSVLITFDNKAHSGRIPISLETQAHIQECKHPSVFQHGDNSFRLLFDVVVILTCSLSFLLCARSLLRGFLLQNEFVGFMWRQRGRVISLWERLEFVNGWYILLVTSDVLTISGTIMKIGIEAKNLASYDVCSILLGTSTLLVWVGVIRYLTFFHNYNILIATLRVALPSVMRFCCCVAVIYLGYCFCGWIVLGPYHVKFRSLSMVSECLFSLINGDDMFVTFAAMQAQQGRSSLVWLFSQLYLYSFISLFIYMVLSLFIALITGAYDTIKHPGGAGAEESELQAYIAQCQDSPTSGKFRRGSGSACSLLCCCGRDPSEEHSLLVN
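TRPML1-DL cells, Tet-induced overnight (~16 h, 37 degrees C), loaded 45-90 min at room temperature with Ca8 no-wash calcium dye plus quencher. FDSS fluorescence: 10 s baseline, compound pin-transfer, 110 s agonist read, then EC80 54-4 (4uM final) and 110 s antagonist read.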
Active calls of the source: *; ? = inconclusive; · = not tested or not shown; & = joins results of further samples; [ ] = remark or other dose.

SMILES | PINK1 modulator | D2 PAM | Six1-Eya2 inh | D2 agonist | CtBP-E1A blk | TRPML1 ag
Cc1cccc(C(=O)NC(NCc2ccco2)C(Cl)(Cl)Cl)c1 (stereo unspecified) | -2.2% | -3 | -7 | -3.6 | -3 | ?
CCCCn1nc(C(=O)Nc2cc(S(=O)(=O)N(C)C)ccc2C)c2ccccc2c1=O | 6.6% | -13 | -23 | -1.5 | -18 | 0.2
CCS(=O)(=O)n1nc(-c2ccccc2)cc1N | 1.1% | 1 | 0 | -4.0 | 3 | -0.7
CC1CCN(C(=O)CN(C)S(=O)(=O)c2cccc3nsnc23)CC1 | -3.3% | -5 | 3 | 0.0 | 0 | -0.2
Cc1ccc(C(=O)N2CCCCCC2)cc1S(=O)(=O)N1CCOCC1 | 0.5% | -10 | 7 | 7.3 | 8 | 0.0
Cc1ccc2nc(-c3ccc(SCC(=O)Nc4cc(C)on4)nc3)[nH]c2c1 | 0.1% | 3 | -11 | -1.5 | -4 | 1.9
COc1cc(SC)ccc1C(=O)NCCNC(=O)c1nonc1N | -3.5% | -5 | 4 | -1.4 | -16 | 1.9
CCOc1ccc(C(=O)Nc2ccc(NC(=S)NC(=O)CC)cc2)cc1Cl | 3.6% | -6 | 8 | -2.6 | 5 | -0.6
CC1(C)CC2CC(C)(CN2C(=O)c2ccc([N+](=O)[O-])cc2)C1 (stereo unspecified) | 3.4% | -6 | -1 | 6.2 | · | 0.0
CC1CCc2nc3sc4c(c3c(N)c2C1)CCCC4 (stereo unspecified) | ? | -24 | -5 | -2.4 | 13 | 2.3
Cn1c(NCCN2CCOCC2)nc2c1c(=O)n(Cc1cccc(Cl)c1)c(=O)n2C | 0.4% | -18 | -15 | -0.6 | -14 | -0.4
Nn1c(SCC(=O)NCc2ccc3c(c2)OCO3)nnc1C1CC1 | 0.5% | -1 | 0 | 0.2 | -1 | -0.6
CCOc1ccc(CSc2nc(C)cc(COC)c2C#N)cc1OCC | 1.5% | -2 | 22 | -5.2 | · | 4.8
O=C(N/N=C\c1ccc(F)cc1)c1cc(OCC(F)(F)F)ccc1OCC(F)(F)F | 16%[38.3 µM] | -6 | 5 | -3.2 | 8 | -0.5
O=C(/C=C/c1ccco1)N1CCC(Cc2ccccc2)CC1 | 1.4% | -22 | -17 | -2.6 | -9 | -0.7
Cn1c(C(=O)NCCN2CCOCC2)cc2sccc21 | -1.2%[38.3 µM] | -10 | -1 | -0.1 | -1 | 0.1
Cc1cnc(C(=O)OCC(=O)N2CCC(C)CC2)cn1 | 3.4% | 4 | -7 | -4.3 | 3 | 1.0
Cc1ccc(C)c(N2CCN(c3ncccc3[N+](=O)[O-])CC2)c1 | 0.9% | 2 | -27 | -2.0 | ? | 2.7
COc1cc(C(=O)N2CCN=C2c2ccccc2)cc(OC)c1OC | -1.3% | -30 | 0 | -0.1 | -2 | -1.0
CN(C)CCCNCCNC(=O)/C=N\O | · | -15 | 0 | 0.8 | 13 | 0.2

Some of these compounds in order of SMILES length, low to high:
SMILES | PINK1 modulator | D2 PAM | Six1-Eya2 inh | D2 agonist | CtBP-E1A blk | TRPML1 ag
Cn1c(C(=O)NCCN2CCOCC2)cc2sccc21 | -1.2%[38.3 µM] | -10 | -1 | -0.1 | -1 | 0.1
Cc1cnc(C(=O)OCC(=O)N2CCC(C)CC2)cn1 | 3.4% | 4 | -7 | -4.3 | 3 | 1.0
O=C(/C=C/c1ccco1)N1CCC(Cc2ccccc2)CC1 | 1.4% | -22 | -17 | -2.6 | -9 | -0.7
Nn1c(SCC(=O)NCc2ccc3c(c2)OCO3)nnc1C1CC1 | 0.5% | -1 | 0 | 0.2 | -1 | -0.6
O=C(N/N=C\c1ccc(F)cc1)c1cc(OCC(F)(F)F)ccc1OCC(F)(F)F | 16%[38.3 µM] | -6 | 5 | -3.2 | 8 | -0.5

Continued:
SMILES | PINK1 modulator | D2 PAM | Six1-Eya2 inh | D2 agonist | CtBP-E1A blk | TRPML1 ag
O=C(O)c1ccc2c(c1)C(=O)N(c1cc([N+](=O)[O-])ccn1)C2=O | -2.1% | 1 | 2 | -3.3 | 27 | 1.5
O=C1COc2ccc(C(=O)/C=C/c3ccccc3)cc2N1 | 1.7% | -9 | 7 | 1.2 | 17 | 0.7
COc1cc(/C=C(\NC(=O)c2ccccc2)C(=O)NCC(=O)O)c([N+](=O)[O-])cc1OC | -2.6% | -10 | -2 | 2.5 | 12 | 0.5
COCCCN1C(=O)C(CC(=O)NCCc2ccccn2)CC(C(=O)N2CCOCC2)=C1C (stereo unspecified) | 0.7% | 0 | 19 | -3.4 | 3 | 0.9
CCOc1ccc2nc(NC(=O)CSc3nnnn3C3CCCCC3)sc2c1 | 2.6%[38.3 µM] | -6 | -18 | 0.9 | -25 | -0.4
N#C/C(=C\c1ccccc1)c1nc2ncccc2[nH]1 | -0.2% | 28 | -24 | 3.7 | -26 | 1.3
CC(NC(=O)c1ccc(F)cc1)c1ccc(F)cc1 (stereo unspecified) | -0.2% | 10 | 4 | -1.4 | 8 | 1.1
COCC(C)n1c(C)cc(C(=O)COc2ccc(S(=O)(=O)N3CCOCC3)cc2Cl)c1C (stereo unspecified) | 0.8% | 8 | -16 | -2.9 | -17 | 1.6
O=C(NC1(C(F)(F)F)N=C(c2ccccc2)NC1=O)c1ccc(Cl)cc1Cl (stereo unspecified) | 9.7%[38.3 µM] | -2 | 0 | -3.1 | 1 | 0.4
CN(C)c1cccc2cccc(N(C)C)c12 | 0.0% | 6 | -6 | 1.3 | 0 | 0.9
CCCCNC(=O)C1(C)CCCCN1C(=O)c1ccc2c(c1)CCO2 (stereo unspecified) | -0.5% | -8 | 4 | -2.9 | 7 | 0.1
COCC(=O)N(CCN(C)C)Cc1cc2cc3c(cc2nc1Cl)OCO3 | 1.8% | 0 | 0 | -5.2 | 3 | -0.3
CC12CCC(=O)N1C(C(=O)NCCN1C(=O)S/C(=C\c3ccc(OC(F)F)cc3)C1=O)CS2 (stereo unspecified) | -4.7% | 0 | -1 | -2.2 | -5 | 0.9
CCN(CC(=O)Nc1c(F)cccc1F)C(=O)c1ccccn1 | 1.0% | -3 | 2 | 2.6 | -2 | -0.1
CC(C)=CC/C=C1\CCC(C(=O)O)C(C(=O)O)C1 (stereo unspecified) | 2.6%[38.3 µM] | -6 | -2 | -0.6 | 10 | -0.3
COc1cc(/C=C(/C(=O)O)c2ccc(-c3ccccc3)cc2)cc(OC)c1OC | 7.3% | 5 | -7 | 8.2 | -6 | 0.9
O=C(Nc1ccc(NC(=O)c2ccc(S(=O)(=O)c3ccccc3)cc2)cc1)c1ccccc1 | 0.1% | -4 | 4 | 1.2 | 2 | 0.0
C[C@@H]1CN([C@H](C)CO)C(=O)c2cc(Br)cnc2O[C@@H]1CN(C)C(=O)NC1CCCC1 | 0.1% | 7 | 3 | -1.7 | 4 | 3.8
Cc1ccc(OCCN2CCNCC2)c([N+](=O)[O-])c1 | -1.1% | -9 | 5 | -5.1 | 5 | 0.8
Cc1cc(C)cc(CC(=O)N2CCC2(C)C(=O)NS(=O)(=O)c2ccccc2C)c1 (stereo unspecified) | 2.5% | -2 | 1 | -2.4 | 1 | -0.9
CSCC[C@H](NC(=O)OC(C)(C)C)c1nnc(SCc2cccc(F)c2)o1 | 0.3% | 1 | -5 | 0.7 | 2 | 0.2
O=C(c1ccc(Cl)c([N+](=O)[O-])c1)N1CCN(S(=O)(=O)c2ccc(Cl)cc2)CC1 | 3.3% | -1 | -12 | 0.3 | -5 | 2.2
O=C(c1ccc(S(=O)(=O)N2CCCCCC2)cc1)N(c1ccccn1)C1CCCCC1 | 11% | -9 | 3 | 4.3 | 5 | 2.6
CCCc1cc(=O)oc2c(C)c(OCC(=O)NCc3ccccn3)ccc12 | 6.2% | -6 | -4 | -3.1 | -4 | -1.1
COc1ccc(C(=O)NCC(=O)OCC(=O)NC2CCCCCC2)cc1 | -1.4% | 8 | 6 | 2.8 | -1 | 0.2
Cc1ccc(-c2csc(C(C)(O)c3cccc(F)c3)n2)cc1C (stereo unspecified) | 6.6% | -10 | -2 | 2.2 | 10 | -0.1
COc1ccc(C)cc1NC(=O)Nc1cccc(C(=O)O)c1 | -1.7% | -3 | 0 | -1.5 | -5 | 0.9
COC(=O)C1=C(C)OC(N)=C(C#N)C1c1cc(OC)ccc1OC (stereo unspecified) | · | 0 | 1 | 0.8 | 0 | -0.4
COc1ccc(C(=O)NCCCN2CCN(CCCNC(=O)c3ccc(OC)c(OC)c3)CC2)cc1OC | 1.3% | -1 | -12 | -4.5 | 1 | 0.2
CCN(CC)CCN(C(=O)c1ccc2c(c1)CCCC2)c1nc2c(OC)cccc2s1 | ? | -42 | -20 | 3.7 | -11 | -0.4

The closing 2 records of the section before are carried over, then new ones follow:
SMILES | PINK1 modulator | D2 PAM | Six1-Eya2 inh | D2 agonist | CtBP-E1A blk | TRPML1 ag
COc1ccc(C(=O)NCCCN2CCN(CCCNC(=O)c3ccc(OC)c(OC)c3)CC2)cc1OC | 1.3% | -1 | -12 | -4.5 | 1 | 0.2
CCN(CC)CCN(C(=O)c1ccc2c(c1)CCCC2)c1nc2c(OC)cccc2s1 | ? | -42 | -20 | 3.7 | -11 | -0.4
COC(=O)c1cc2sccc2n1Cc1nc(-c2ccc(Cl)cc2)oc1C | 1.7%&11% | 13 | -1 | -4.2 | 4 | -0.1&0.2
Cc1ccc(C)c(C(=O)COc2ncnc3ccccc23)c1 | 2.9% | 1 | 9 | -4.0 | -2 | -0.4
Cc1ccc(CCNC(=O)CC(C)CC2=NS(=O)(=O)c3ccccc3N2)cc1 (stereo unspecified) | 0.6% | -15 | 3 | -4.4 | 6 | -1.3
CCCn1nc2cc(C(=O)NCCc3ccc(C)cc3)ccc2c1OCC | 1.1% | -1 | -3 | -0.1 | 5 | 1.1
COc1cc(/C=N/NC(=O)CSc2ccccn2)ccc1OC(C)C | 0.9% | 6 | -15 | 4.0 | -16 | 0.7
c1cn(CCCNC2=NCCCCC2)cn1 | 0.2% | -5 | -3 | 1.0 | 0 | 0.4
Cc1ccc2c(c1)c1ncnc(N3CCN(c4ccccc4)CC3)c1n2C | -1.3% | -3 | 9 | 1.6 | 2 | -0.4

Screening data from PubChem.
